From PubChem
GLA inh pH 4.5: blocks human alpha-galactosidase A at pH 4.5; activity change, negative = inhibition, % at 105 µM; purified enzyme, 4-MU-alpha-Gal fluorescence, pH 4.5; 230,000 tested, under 10 active; P06280; inconclusive = small, poorly fitted or top-dose-only inhibition, or a rising curve; inactive = flat fitted curve, though single readings scatter; no compound was filed as active;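 note: 0% = full activity with enzyme and -100% = basal without enzyme; dose as in the result columns while the protocol names 77 µM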
Target sequence (P06280 whole entry, looked up): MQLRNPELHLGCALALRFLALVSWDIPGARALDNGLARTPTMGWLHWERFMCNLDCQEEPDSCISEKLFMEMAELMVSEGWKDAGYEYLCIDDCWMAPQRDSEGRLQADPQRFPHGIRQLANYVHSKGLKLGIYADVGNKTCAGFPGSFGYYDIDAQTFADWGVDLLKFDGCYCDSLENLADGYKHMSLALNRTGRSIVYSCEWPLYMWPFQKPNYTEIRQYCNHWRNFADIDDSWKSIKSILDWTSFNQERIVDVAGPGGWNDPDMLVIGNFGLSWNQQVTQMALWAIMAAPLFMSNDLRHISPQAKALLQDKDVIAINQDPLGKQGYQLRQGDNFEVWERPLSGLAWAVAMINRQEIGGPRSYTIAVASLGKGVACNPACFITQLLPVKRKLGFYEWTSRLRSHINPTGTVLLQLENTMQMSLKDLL
Starred values were filed as active, the others as inactive; & = joins results of further samples. An excerpt; count on the stated rates, not on these rows.

GLA inh pH 4.5	Molecule
-14	O=c1cc(-c2ccccc2Cl)oc2c([N+](=O)[O-])ccc(O)c12
1	NC(CCC(=O)NCS(=O)(=O)O)C(=O)O (stereo not given)
-5&1	CC(C)[N+]1(C)[C@@H]2CC[C@H]1CC(OC(=O)[C@@H](CO)c1ccccc1)C2 (stereo not given in full)
-5	COC(=O)[C@@]1(Cc2ccc(F)cc2)[C@@H]2C(=CC(=O)[C@H]2CC(=O)C(=O)N2CCCC2)CN1C(=O)c1ccccc1
-2	Cc1c(-c2ccccc2)oc2c(C(=O)OCCN3CCCCC3)cccc2c1=O
-16	NNc1nnc(NN)c2ccccc12
-8	COC(=O)C1=C(C(=O)OC)[C@@H]2N(C)c3ccc(OC)cc3[C@@]23C[C@@H](C(=O)OC)N(S(=O)(=O)c2cccs2)C3=N1
4	COC(=O)C(O)C1C(C)(C)C(OC(C)=O)C2CC3=C4CC(=O)OC(c5ccoc5)[C@]4(C)CCC3[C@@]1(C)C2=O (stereo not given in full)
3	Cc1cnc(CNc2nc(-c3ccc(C(=O)N(C)C)cc3)nc3ccccc23)cn1
5	O=c1cc(-c2ccc(O)c(O)c2)oc2ccccc12
2&7	COc1ccc2c(c1OC)C(=O)O[C@H]2C1c2c(cc3c(c2OC)OCO3)CCN1C (stereo not given in full)
2	C=CCC(C)(O)c1cccc(C(F)(F)F)c1 (stereo not given)
0	C[C@](N)(COP(=O)(O)O)C(=O)O
-2	Cc1cnc(CNc2nc(-c3ccc(N(C)C)cc3)nc3ccccc23)cn1
-8	CC(CC(O)C1OC1(C)C)C1CCC2(C)C3=CCC4C(C)(C)C(=O)CCC4(C)C3CC[C@@]12C (stereo not given in full)
-1	COC(=O)c1ccc(C(NC(=O)OCc2ccccc2)/C(=C/[C@@H](C)C(=O)N(C)Cc2cccnc2)c2cccnc2)cc1 (stereo not given in full)
6	CC(=O)OCC(=O)[C@]1(O)C(OC(C)=O)CC2C3CCC4=CC(=O)C=C[C@@]4(C)[C@]3(F)C(O)C[C@]21C (stereo not given in full)
0	N[C@H](C(=O)O)C1[C@H](C(=O)O)[C@H]1C(=O)O (stereo not given in full)
-1	COc1cccc(C=NC=Nc2cccc(OC)c2)c1
8	C[C@@H](COc1ccccc1)N(CCCl)Cc1ccccc1
-9	CCCC[C@@H]1C[C@H]1C(NC(=O)c1ccccc1)c1ccccc1C(F)(F)F (stereo not given in full)
0	C[C@@H](CC(=O)O)[C@@H](N)C(=O)O
-4	O[C@H](c1cc(C(F)(F)F)nc2c(C(F)(F)F)cccc12)[C@H]1CCCCN1
-13	COc1cc2c(cc1OC)C1C(=O)c3c(cc4c(c3O)C=CC(C)(C)O4)OC1CO2 (stereo not given)
-9	CC[C@H](C)[C@@H](NC(=O)O[C@@H]1Cc2cc(Br)ccc2O[C@H]1c1cccc(OC)c1)C(=O)OC
-5	CCC(=O)O[C@@]1(C(=O)CCl)[C@@H](C)C[C@@H]2[C@H]3CCC4=CC(=O)C=C[C@@]4(C)[C@]3(F)[C@@H](O)C[C@@]21C
-4	CN(C)c1ccc(-c2nc(Nc3ccncc3)c3ccccc3n2)cc1
-22	Cc1cccc(C(=O)N2CCC(=O)N([C@H](COCc3cccc(C(F)(F)F)c3)Cc3ccccc3)CC2)c1
3	CNC1C(O)C(O[C@H]2C(O)[C@@H](OC3OC(CN)=CCC3N)[C@H](N)C[C@@H]2N)OC[C@]1(C)O (stereo not given in full)
1	COc1cc(C2c3cc4c(cc3C(OC3OC5COC(C)O[C@@H]5C(O)C3O)C3COC(=O)C23)OCO4)cc(OC)c1O (stereo not given in full)
-2	COc1ccc2c(c1)O[C@H](c1ccc3c(c1)OCO3)[C@@H](OC(=O)NS(=O)(=O)c1ccc(F)cc1)C2=O
-7	c1nc(NC2CCNCC2)c2cc(-c3ccc4c(c3)OCO4)ccc2n1
0	C[N+](C)(C)CCCCCNCC12CC3CC(CC(C3)C1)C2
4	C[C@H]1C[C@]2(O[C@@H]2C)C(=O)O[C@@H]2CCN(C)C/C=C(/COC(=O)[C@]1(C)O)C2=O
-3	COc1ccc2c(c1)C(c1ccc3c(c1)OCO3)CC(=O)O2 (stereo not given)
-3	COc1ccc(-c2oc3cc(OC)ccc3c(=O)c2O)cc1
-5	C=CC(=O)c1ccc2ccccc2c1
-4	CC1(OC(=O)C2CCCC2)C(=O)C=C2C=C(c3ccsc3)N(c3cccc(C#N)c3)C=C2C1=O (stereo not given)
2	CC1(OC(=O)c2ccc(Cl)nc2)C(=O)Cc2cc(-c3ccsc3)ncc2C1=O (stereo not given)
-5	N[C@@H](Cc1cc(-c2ccc(Cl)cc2Cl)cc(CP(=O)(O)O)c1O)C(=O)O
-1	COc1c(CO)cc(CO)cc(CO)c1=O
-2	Cc1cn(C2CC(N=[N+]=[N-])C(CO)O2)c(=O)[nH]c1=O (stereo not given)
-5	COc1cccc(-c2nccc(NC3CCNCC3)n2)c1
5	C[C@@H]1[C@H]2CC[C@@H]3[C@@H]4CC=C5C[C@@H](N(C)C)CC[C@]5(C)[C@@H]4CC[C@@]32CN1C
-10	CS(=O)(=O)Nc1cccc(-c2nc(NCc3cccs3)c3ccccc3n2)c1
-10	NC(=O)c1cc[n+](CC2=C(C(=O)[O-])N3C(=O)[C@@H](NC(=O)Cc4cccs4)[C@@H]3SC2)cc1
-11	CCC1OC(=O)C(C)[C@@H](O[C@H]2C[C@@](C)(OC)C(O)C(C)O2)C(C)[C@@H](O[C@@H]2OC(C)CC(N(C)C)C2O)[C@@](C)(O)CC(C)C2NC(COCCOC)O[C@H](C2C)[C@@]1(C)O (stereo not given in full)
-28	Cc1nc(NCc2ccccc2)c2nc(-c3ccccc3)n(CC(C)(C)CN(C)C)c2n1
-7	CC1=C2C(=CO[C@H](C)[C@H]2C)C(=O)C(C(=O)O)=C1O
-2	CC(C)[C@H]1COC(c2cc(Cl)cc(Cl)c2)=N1

(next part)
GLA inh pH 4.5	Molecule
-7	O=C1CCCC(C(C(=O)OCc2ccccc2)C(=O)OCc2ccccc2)C1 (stereo not given)
-3	COc1ccc2c(c1)C(=O)[C@H](OC(=O)NCCc1ccc(OC)c(OC)c1)[C@@H](c1ccc(OC)c(Br)c1)O2
-13	CCC/C=C(\CCC)C(NC(=O)OCC(C)C)c1ccccc1 (stereo not given)
-3&1	O=S(=O)(c1cccc2c(Cl)cccc12)N1CCCNCC1
11	CC(=O)C1=C(O)C=C2Oc3c(C(C)=O)c(O)c(C)c(O)c3[C@]2(C)C1=O
-2	CC(=O)SC[C@@H](Cc1ccccc1)C(=O)NCC(=O)OCc1ccccc1
1	COc1ccc2c3c([nH]c2c1)[C@@H]1C[C@@H]2[C@@H](C[C@H](O)[C@H](OC)[C@H]2C(=O)O)CN1CC3
4	CCn1c(=O)c2[nH]c(-c3ccccc3)nc2n(CC)c1=O
-17	O=c1cc(-c2ccccc2O)oc2c(O)c(O)ccc12
1	CCCCCC(=O)O[C@H](CC(=O)O)C[N+](C)(C)C
-8	COC(=O)[C@@]1(Cc2ccccc2)[C@H]2c3cc(C(=O)N(C)C)n(CCN4CNCC4=O)c3C[C@H]2CN1C(=O)c1ccccc1
-4	Cn1ccnc1
-2	C[C@@H](CN(C)C[C@H]1C(=O)O[C@@H]2C[C@@]3(C)CCC[C@]4(CO4)C3CC21)[C@H](O)c1ccccc1 (stereo not given in full)
2	CCOc1ccc(C(=O)c2ccc(O)c(O)c2O)cc1
-16	Clc1ccccc1CNCC1CCC(CNCc2ccccc2Cl)CC1 (stereo not given)
5	COc1cc2c(cc1OC)C(c1ccccc1)CN(C)CC2 (stereo not given)
-16	COc1ccccc1-c1oc2ccccc2c(=O)c1O
-1	CC(C)(C)NC[C@H](O)COc1cccc2c1CCC(=O)N2
3	C=CCc1ccccc1OC[C@H](O)CNC(C)C
-12	N#Cc1cccc(CS(=O)(=O)c2ccccc2)c1
-8	CCCc1cc2c(n1Cc1cc(F)cc(F)c1)C(C)C1CN(C(=O)c3ccccc3)C(C)(C(=O)OC)C21 (stereo not given)
-22	COc1c(O)cc2c(-c3ccccc3)cc(=O)oc2c1OC
0	CCCCC/C=C\C\C=C/C=C/C=C/[C@@H](SCC(NC(=O)CCC(N)C(=O)O)C(=O)NCC(=O)O)[C@@H](O)CCCC(=O)O (stereo not given in full)
1	C[C@]1(c2ccccc2)OC(C(=O)O)=CC1=O
-2	NCCC[C@@H](CC(=O)N[C@@H]1CCCC[C@H]1C(=O)N[C@H](CC(=O)N[C@@H](CCC(=O)O)CC(=O)O)Cc1ccccc1)NC(=O)C[C@H](Cc1c[nH]c2ccccc12)NC(=O)[C@@H]1CNCC[C@H]1N
-4	CC(C)C[C@@H](NC(=O)[C@@H](O)[C@H](N)Cc1ccccc1)C(=O)O
-4	NCCC[C@@H](CC(=O)N[C@@H]1CCCC[C@H]1C(=O)N[C@H](CC(=O)N[C@@H](CCC(=O)O)CC(=O)O)Cc1c[nH]c2ccccc12)NC(=O)C[C@H](CO)NC(=O)[C@@H]1CCCC[C@H]1N
-12	COc1ccc2c(c1)O[C@H](c1ccc3c(c1)OCO3)[C@@H](OC(=O)Nc1ccc(OC(F)F)cc1)C2=O
-1	CC[N+]1(C)[C@@H]2CC[C@H]1CC(OC(=O)[C@H]1CC[C@@](C(=O)OC3C[C@H]4CC[C@@H](C3)[N+]4(C)CC)(c3ccccc3)c3ccccc31)C2 (stereo not given in full)
-11	CC[C@@](N)(C(=O)O)c1ccc(C(=O)O)cc1
6	CS(=O)(=O)Nc1cccc(-c2cncnc2NCc2cccs2)c1
-8	CC(=O)O[C@H](C(=O)O[C@@H]1C[C@@H](CCC[C@H]2O[C@H](C(=O)OC(C)C)CC[C@@H]2C)O[C@@H](CC#N)C1)c1ccccc1
3	CCC(=O)N[C@@H]1CCc2cccc(OC)c2C1
-4	CC1CCC2(OC1)OC1CC3C4CC[C@@H]5CC(O)CC[C@@]5(C)C4CC(=O)[C@]3(C)C1C2C (stereo not given in full)
-5&-3	S=c1[nH]c2ccccc2s1
-5	CS(=O)(=O)Nc1cccc(-c2nc(NCCN3CCOCC3)c3ccccc3n2)c1
7	COc1cc2c(cc1OC)Cc1cc(OC)c(OC)cc1Cc1cc(OC)c(OC)cc1C2
-2	CC1=C(/C=C/C(C)=C/C=C/C(C)=C/C=C/C=C(C)/C=C/C=C(C)/C=C/C(=O)[C@]2(C)C[C@@H](O)CC2(C)C)C(C)(C)C[C@H](O)C1
-22	O=C(O)C1CCC[C@@H]2[C@@H]3CC(CN12)[C@@H]1CCCCN1C3 (stereo not given in full)
6&1	CC(=C(CCOP(=O)(O)O)SC(=O)c1ccccc1)N(C=O)Cc1cnc(C)nc1N
0	COC(=O)c1ccccc1S(=O)(=O)N1CCc2nc(-c3ccccc3)c3c(c2C1)CO[C@@H](C)C3
7	CC[C@]1(C)CC(=O)NC1=O
-2&0	CO[C@@]12C[C@@H](COC(=O)c3cncc(Br)c3)CN(C)[C@H]1Cc1cn(C)c3cccc2c13
7	Oc1ccc(C2Oc3cc(O)cc(O)c3CC2O)cc1 (stereo not given)
0	Cc1nc(N2CCOCC2)c2nc(-c3ccccc3)n(CCN3CCCC3)c2n1
-6	CCCn1c(C)nc2c(NCCCN(CC)CC)nc(C)nc21
2	COC(=O)CC1c2ccccc2C(Cc2ccc(OC)cc2)=C(C)N1C(=O)OC (stereo not given)
-11	C[C@]12CCC3c4ccc(OC(=O)c5ccccc5)cc4CCC3C1CCC2=O (stereo not given in full)
-9	O=C(NCCc1ccccc1)c1cccc(Br)n1
4	CC(=O)C1CCC2C3CCC4=CC(=O)CC[C@@]4(C)C3CC[C@]12C (stereo not given in full)
-15	CCN(CC)CCCCn1c(-c2ccccc2)nc2c(N3CCOCC3)nc(C)nc21
0	C=C[C@]1(C)CC(=O)[C@@]2(O)[C@@]3(C)C(O)CCC(C)(C)C3C(O)C(OC(C)=O)[C@@]2(C)O1 (stereo not given in full)
10	N[C@H](C(=O)O)c1ccc(C(=O)O)cc1

By substructure, the entries above containing a COOH group (16)
GLA inh pH 4.5	Molecule
1	NC(CCC(=O)NCS(=O)(=O)O)C(=O)O (stereo not given)
0	C[C@](N)(COP(=O)(O)O)C(=O)O
0	N[C@H](C(=O)O)C1[C@H](C(=O)O)[C@H]1C(=O)O (stereo not given in full)
0	C[C@@H](CC(=O)O)[C@@H](N)C(=O)O
-5	N[C@@H](Cc1cc(-c2ccc(Cl)cc2Cl)cc(CP(=O)(O)O)c1O)C(=O)O
-7	CC1=C2C(=CO[C@H](C)[C@H]2C)C(=O)C(C(=O)O)=C1O
1	COc1ccc2c3c([nH]c2c1)[C@@H]1C[C@@H]2[C@@H](C[C@H](O)[C@H](OC)[C@H]2C(=O)O)CN1CC3
1	CCCCCC(=O)O[C@H](CC(=O)O)C[N+](C)(C)C
0	CCCCC/C=C\C\C=C/C=C/C=C/[C@@H](SCC(NC(=O)CCC(N)C(=O)O)C(=O)NCC(=O)O)[C@@H](O)CCCC(=O)O (stereo not given in full)
1	C[C@]1(c2ccccc2)OC(C(=O)O)=CC1=O
-2	NCCC[C@@H](CC(=O)N[C@@H]1CCCC[C@H]1C(=O)N[C@H](CC(=O)N[C@@H](CCC(=O)O)CC(=O)O)Cc1ccccc1)NC(=O)C[C@H](Cc1c[nH]c2ccccc12)NC(=O)[C@@H]1CNCC[C@H]1N
-4	CC(C)C[C@@H](NC(=O)[C@@H](O)[C@H](N)Cc1ccccc1)C(=O)O
-4	NCCC[C@@H](CC(=O)N[C@@H]1CCCC[C@H]1C(=O)N[C@H](CC(=O)N[C@@H](CCC(=O)O)CC(=O)O)Cc1c[nH]c2ccccc12)NC(=O)C[C@H](CO)NC(=O)[C@@H]1CCCC[C@H]1N
-11	CC[C@@](N)(C(=O)O)c1ccc(C(=O)O)cc1
-22	O=C(O)C1CCC[C@@H]2[C@@H]3CC(CN12)[C@@H]1CCCCN1C3 (stereo not given in full)
10	N[C@H](C(=O)O)c1ccc(C(=O)O)cc1
